# Assay outcomes deposited in PubChem BioAssay by National Center for Advancing Translational Sciences (NCATS).
# N370S GC mod: N370S glucocerebrosidase modulation, Gaucher chaperone candidate; N370S GC spleen homogenate, 4MU-glucoside fluorescence; 0.092% of 330,000 active; Potency, µM (doses to about 59.4 µM), for the others: at the top dose activity change, negative = inhibition, usual class: inhibitors; AID 2101;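 also: 0% = full enzyme activity and -100% = no enzyme basal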
# KAT2A inh: inhibitors of human GCN5L2 histone acetyltransferase; Q92830; GCN5L2 HAT assay, ThioGlo1 CoA-SH fluorescence; Potency, µM (highest dose often 58.9 µM), without a hit: at the top dose activity change, negative = inhibition, hits mostly inhibitors; 0.21% of 390,000 active; AID 504327
# Target sequence (Q92830 whole entry, looked up): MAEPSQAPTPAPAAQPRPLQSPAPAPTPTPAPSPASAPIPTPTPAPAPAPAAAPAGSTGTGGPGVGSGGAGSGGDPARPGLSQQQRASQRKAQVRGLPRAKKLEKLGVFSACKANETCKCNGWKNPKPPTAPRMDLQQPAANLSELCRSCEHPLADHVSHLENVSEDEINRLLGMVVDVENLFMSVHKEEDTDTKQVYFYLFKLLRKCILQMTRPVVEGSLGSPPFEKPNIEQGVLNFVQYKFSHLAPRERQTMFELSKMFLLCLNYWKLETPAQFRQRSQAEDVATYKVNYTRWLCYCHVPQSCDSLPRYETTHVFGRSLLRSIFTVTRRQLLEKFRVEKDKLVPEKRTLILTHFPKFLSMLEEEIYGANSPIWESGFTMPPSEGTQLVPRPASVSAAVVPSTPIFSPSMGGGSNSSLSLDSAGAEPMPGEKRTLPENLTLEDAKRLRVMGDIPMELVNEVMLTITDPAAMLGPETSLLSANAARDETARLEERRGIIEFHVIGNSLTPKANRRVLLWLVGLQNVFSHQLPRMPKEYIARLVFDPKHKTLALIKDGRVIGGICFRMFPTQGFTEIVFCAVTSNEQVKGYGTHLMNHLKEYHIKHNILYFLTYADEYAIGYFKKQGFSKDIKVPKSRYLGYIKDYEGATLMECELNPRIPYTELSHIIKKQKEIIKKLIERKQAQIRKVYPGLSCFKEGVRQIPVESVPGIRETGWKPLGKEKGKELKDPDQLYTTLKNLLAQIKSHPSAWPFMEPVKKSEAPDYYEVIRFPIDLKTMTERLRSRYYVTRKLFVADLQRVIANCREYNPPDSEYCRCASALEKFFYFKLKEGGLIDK
#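 qHTS, 1536-well. 20nM enzyme, pH 7.5 HEPES/EDTA/Tween-20 buffer; 15 min compound preinc., RT. Start: 75uM H3(1-25), 70uM AcCoA, 50uM ThioGlo1. Read Ex340/Em540 at t=0 (autofluorescence flag) and t=20 min.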
# An asterisk follows results filed as active; ? = inconclusive; . = not tested or not shown; & = joins results of further samples; [ ] = dose if it differs, or a comment. Calls follow the shape of the dose curve; as a rule, active = well fitted curve in the direction sought with a large enough effect; inconclusive = small, poorly fitted or top-dose-only effect, or another doubt; inactive = no such curve, though single readings can be large; an effect the other way counts as inactive or inconclusive. Unless noted, % is scaled to controls: 0 for no effect and ±100 for the full control effect; potency is read from the fitted curve at half-maximal effect.
canonical_smiles	N370S GC mod	KAT2A inh
Cc1ccc(NC(=O)C(=O)NNC(=O)c2cccs2)cc1	-12%	-8%
Cc1cc(C)cc(N(CC(=O)NC2CCCC2)C(=O)CCC(=O)Nc2cc(C)ccn2)c1	0%	-3%
N=C1C2=C3Sc4ccccc4N3CCCC2=NN1c1cccc(S(=O)(=O)O)c1	3%	1%
O=C(NCCCCc1ccccc1)c1nn(-c2ccccc2F)nc1CO	.	-10%
COC(=O)c1ccccc1NC(=O)C1CC(=O)N(c2ccc(C)cc2)C1 (stereo not drawn)	5%	-10%
Cc1cc(C)c2nc(N3CCC(C(=O)NCc4cccnc4)CC3)sc2c1	-7%	-5%
CCCC(c1nnnn1Cc1cccs1)N1CCN(C)CC1 (stereo not drawn)	-11%	4%
Cc1ccc(-c2cc(C(F)F)n3ncc(C(=O)NN4CCCCC4)c3n2)cc1	-25%	-5%
CCc1cc2c(N[C@@H](Cc3ccccc3)C(=O)O)ncnc2s1	6%	-5%
COc1ccc(NC(=O)C2C3C=CC4(O3)C2C(=O)N(CCCN2CCCC(C)C2)C4C(=O)NC2CCCCC2)cc1 (stereo not drawn)	-5%	-5%
COc1ccc(C)cc1NC(=O)CC(NC(C)=O)c1ccccc1 (stereo not drawn)	26%	-10%
CCOCCCNS(=O)(=O)c1ccc(NC(=O)c2ccccc2)cc1	-2%	-1%
CC(=O)c1c(C)[nH]c(C(=O)COC(=O)c2nccnc2N)c1C	.	-8%
c1ccc2c(c1)NC(c1ccncc1)n1c-2nc2ccccc21 (stereo not drawn)	-14%	-2%
CC(C)Cn1c(CNC(=O)c2ccccc2)nc2ccccc21	1%	-4%
CCn1cnc2sc(C(=O)Nc3ccc4c(c3)OCO4)c(C)c2c1=O	-12%	-1%
CCN(CC)CCCNC(=S)N1CCN(c2nc3ccccc3n2CC)CC1	-3%	-21%
COc1ccc(CC(=O)NNC(=O)CSc2nnc(Cc3ccc(OC)cc3)n2-c2ccccc2)cc1	7%	-3%
CC1(C)CNC(=O)CC(C)(C)N1O	-1%	-8%
COc1ccc(-c2cc(C(=O)Nc3cccc(C(C)=O)c3)no2)cc1	1%	-1%
COc1ccccc1N(C)S(=O)(=O)c1ccc(C(=O)Nc2ccc(C(N)=O)cc2)cc1	.	1%
CC1=CCC(C(=O)O)(C(=O)N/N=C/c2cccs2)C(c2ccc(Cl)cc2)C1 (stereo not drawn)	26%	-11%
CCN=C1S/C(=C\c2ccc(-c3cccc(C(=O)O)c3)o2)C(=O)N1CC	3%	0%
O=C(C[n+]1cnn(CC(=O)c2ccc(Cl)cc2Cl)c1)c1ccc([N+](=O)[O-])cc1	-22%	-2%
CCc1c(C(=O)Nc2ccc(OC)cc2)[nH]c(C)c1C(C)=O	-4%	-2%

# Some of these compounds in order of length of the SMILES, descending:
canonical_smiles	N370S GC mod	KAT2A inh
O=C(C[n+]1cnn(CC(=O)c2ccc(Cl)cc2Cl)c1)c1ccc([N+](=O)[O-])cc1	-22%	-2%
COC(=O)c1ccccc1NC(=O)C1CC(=O)N(c2ccc(C)cc2)C1 (stereo not drawn)	5%	-10%
CC(=O)c1c(C)[nH]c(C(=O)COC(=O)c2nccnc2N)c1C	.	-8%
COc1ccc(C)cc1NC(=O)CC(NC(C)=O)c1ccccc1 (stereo not drawn)	26%	-10%

# Next compounds:
canonical_smiles	N370S GC mod	KAT2A inh
Cc1nc(NC(=O)COC(=O)C(C)NC(=O)c2ccccc2)c(Cl)cc1Cl (stereo not drawn)	.	1%
COc1cccc(CNc2ccc3[nH]c(=O)[nH]c3c2)c1OCc1ccc(F)cc1	-4%	-8%
O=C(COc1cccc2ccccc12)N/N=C/c1ccncc1	-18%	-18%
C=CCn1c(=O)/c(=C/c2ccc(O)cc2)s/c1=C(/C#N)c1nnc2n1CCCCC2	?	0%
CCCCOc1ccc(OCCNC(=O)c2ccco2)cc1	2%	-6%
CN(C(=O)COc1ccccc1)c1nnc(C23CC4CC(CC(C4)C2)C3)s1	14%	0%
O=C(Cn1cncn1)N/N=C/c1ccccc1Cl	1%	1%
CCC1=C2CC[C@H]3C(=O)N(c4ccccc4)C(=O)[C@H]3[C@H]2[C@@]2(C)C(=NCC3CC3)OC(=O)N2C1=O	-5%&4%	0%
O=C(NCCC1=CCCCC1)c1ccc(Cl)c(S(=O)(=O)Nc2ccccc2)c1	14%	-29%
Cc1c(Cl)cccc1N1C(=O)C2ON(c3ccccc3)C(c3cccnc3)C2C1=O (stereo not drawn)	-10%	-4%
Cc1ccc(C)c(N(C)C(=O)Cc2c(C(=O)O)[nH]c3ccc(Cl)cc23)c1	.	-8%
CC1CC(C)CN(CC(O)COc2ccc3c(c2)CCC3)C1 (stereo not drawn)	-3%	-6%
CC(Oc1ccc(Cl)cc1Cl)C(=O)/C=C/N(C)C (stereo not drawn)	10%	-15%
O=C(Nc1ccc2nc(-c3ccccc3)oc2c1)c1ccco1	0%	?
CCN(CC)CCN(C(=O)c1ccc(S(=O)(=O)N2CCCC2)cc1)c1nc2cc(C)cc(C)c2s1	-8%	-3%
CCC(OC(=O)c1nsc(Cl)c1Cl)C(=O)NC(C)(C)CC (stereo not drawn)	5%	-2%
CNC(=S)Nc1ccc(Nc2ccccc2)cc1	0%	-7%
Cc1ccc(C)c(Nc2nc(-c3ccncc3)nc3ccccc23)c1	-19%	-7%
O=C(NCc1ccncc1)/C(=C\c1ccc(F)cc1)NC(=O)c1ccccc1	-4%	-4%
COc1ccc(CCNC(=O)CSc2ccc3nnc(CCNC(=O)c4ccccc4)n3n2)cc1OC	4%	-20%
CCCC(C)NC(=O)COC(=O)c1cc(Br)c(Br)s1 (stereo not drawn)	-1%	-5%
CNc1c(NS(=O)(=O)c2ccc(F)c(Cl)c2)c(=O)oc2ccccc12	-11%	-8%
CC(=O)Nc1ccc2nc(CN3CCN(Cc4ccc(F)cc4)C(CCO)C3)ccc2c1 (stereo not drawn)	-10%	-26%
NNC(=O)C(Cc1ccccc1)NC(=O)OCc1ccccc1 (stereo not drawn)	-12%	-10%
C=CCn1c(=N)c(C#N)cc2c(=O)n3ccccc3nc21	-1%	-5%
C=C(C)[C@@H]1CC=C(C(=O)O)CC1	-4%	-10%
N[C@@H](Cc1ccc(O)c(O)c1)C(=O)O	2%[21.6 µM]	-7%
O=C(NNC(=S)NC(=O)c1ccc(Br)cc1)c1ccc([N+](=O)[O-])cc1	-10%	?
CC(=O)N1CCc2cc(Br)cc(S(=O)(=O)NCC3CCCO3)c21 (stereo not drawn)	7%	0%
Nc1nc2c(F)c(F)c(F)cc2s1	2%	-12%
COc1ccc2c(c1)c(C(=O)N/N=C/c1ccc(Cl)cc1)c(C)n2C	7%	-4%
O=C1Nc2ccccc2N=C(c2ccccc2)C1N1CCOCC1 (stereo not drawn)	5%	-5%
N#Cc1ccc(Oc2ccc(NC(=O)C3CC=CCC3C(=O)O)cc2)cc1 (stereo not drawn)	-8%	2%
Cc1ccccc1C(=O)OCc1cc(=O)n2c(C)csc2n1	.	16%
CC(C)NC(=O)CSc1nc(-c2cccs2)cc(-c2ccccc2)c1C#N	4%	-9%
CCOC(=O)c1cc(C)n(CCc2ccccc2)c1C	15%	2%
CCN1C(=O)C2(C(C(=O)c3cc4ccccc4o3)=C(O)C(=O)N2CCCN2CCOCC2)c2ccccc21 (stereo not drawn)	-18%	-8%
Cc1ccc(-c2csc(/C(C#N)=C(\O)CN3CCN(C(=O)c4ccco4)CC3)n2)cc1	-3%	-1%
O=C(N/N=C/c1cccc2ccccc12)c1n[nH]c2c1CCCC2	-12%	-4%
Cc1ccccc1NC(=O)NC1(C(=O)N2CCC(O)CC2)CCCCC1	3%	-17%
Cc1nn(-c2ccccc2)c(C)c1NC(=O)c1ccc(S(=O)(=O)N2CCCC2)cc1	-6%	1%
O=C(Cn1nnc2ccccc2c1=O)N[C@@H](Cc1c[nH]c2ccccc12)C(=O)O	2%	-6%
Cc1nnc(SCC(=O)Nc2cc(S(=O)(=O)N3CCCC3)ccc2Cl)s1	10%	11%
CCOc1ccc2c(c1)C(=NNC(=O)c1ccncc1)c1cc(OCC)ccc1-2	-7%	-1%
Cc1nn(C)cc1S(=O)(=O)Nc1ccc2c(c1)OCCO2	8%	3%
COC(=O)c1nc2ccc(N3CCOCC3)cc2c(C)c1C(=O)OC	4%	-29%
Cc1cc(C)c(S(=O)(=O)c2cc(F)ccc2C)c(Cl)n1	-9%	3%
CCOC(=O)C1CCN(C(=O)Cn2nc(CC)n3c(cc4occc43)c2=O)CC1	.	-1%
COC(=O)c1sccc1NC(=O)CSc1cccc(Cl)c1Cl	10%	-23%
C/C(=N\NC(=O)c1cccnc1)c1ccc(Br)cc1	1%	-1%

# Next results:
canonical_smiles	N370S GC mod	KAT2A inh
COc1cccc(C(=O)NN/C(C)=C/C(=O)C(F)(F)C(F)(F)C(F)(F)F)c1	-6%	0%
CC(CCc1ccccc1)NC(=O)CN1CCSc2ccccc21 (stereo not drawn)	4%	-6%
CN(Cc1nc2ccccc2s1)C(=O)c1ccc(F)cc1	2%	-5%
O=C1CCCN2N=C(SCC(=O)Nc3ccccc3C(F)(F)F)SC2=N1	2%	-2%
Cc1cc(C(=O)NNS(=O)(=O)c2ccccc2C(F)(F)F)nn1C(C)(C)C	6%	-1%
N#CC12CCCCC1CC1CCCCC1(C#N)N2Cc1cccnc1 (stereo not drawn)	3%	-3%
O=C(CSc1ccc2nc(-c3ccccc3)cn2n1)NCC1CCCO1 (stereo not drawn)	?	-10%
O=C(c1ccc(F)cc1)n1c(NCc2ccccc2)n[nH]c1=S	1%	4%
CC1CCN(C(=O)COc2ncnc3ccccc23)CC1	-10%	3%
CCOC(=O)c1sc(NC(=O)CN2C(=O)c3cccc4cccc(c34)C2=O)nc1C	8%	-3%
COc1ccccc1CNC(=O)CCCn1c(=O)c2ccccc2n(Cc2ccc(F)cc2)c1=O	.	-2%
CC(C)C(=O)NNC(=O)CSc1nnc(-c2ccccc2)c(-c2ccccc2)n1	-4%	-7%
Clc1ccc2c(c1)CNc1c(ncnc1N1CCOCC1)O2	-2%	1%
Cc1cc(O)cc(O)c1C=NCc1ccco1	6%	-6%
CC(C)n1c(NCCO)nc2ccccc21	13%	-5%
CSc1ccc(CN(C)C(=O)c2cc(Cl)c3c(c2)OCCO3)cc1	-9%	-3%
O=c1[nH]c(NC2CCCCC2)nnc1Cc1ccccc1	-7%	1%
O=C(COC(=O)CN1C(=O)C2CCCCC2C1=O)Nc1ccc(S(=O)(=O)N2CCOCC2)cc1 (stereo not drawn)	-5%	-1%
Cc1nn2c(=O)cc(CSc3ccccc3NC(=O)c3ccccc3F)nc2s1	0%	-3%
COc1ccc(CNc2ncc(-c3ccc(F)cc3)n2C)cc1OC	-4%	-20%
CC(=O)c1ccc(NC(=O)C(C)N(C)CC(=O)Nc2ccccc2Cl)cc1 (stereo not drawn)	-21%	-3%
O=C(OCc1nc2ccc(Cl)cc2n1CCO)c1ccccc1C(=O)c1ccccc1	3%	2%
COc1ccc(OC)c(C2CC(=O)NC(SC)=C2C#N)c1 (stereo not drawn)	4%	-6%
COCCN(Cc1ccccc1)C(=O)c1ccc2c(c1)NC(=O)CS2	.	-1%
CCCN(CC(=O)Nc1ccccc1C)C(=O)CCCOc1ccc(Br)cc1	.	-12%

# Random excerpt: 2 compounds from above, in no set order.
canonical_smiles	N370S GC mod	KAT2A inh
O=c1[nH]c(NC2CCCCC2)nnc1Cc1ccccc1	-7%	1%
C=CCn1c(=O)/c(=C/c2ccc(O)cc2)s/c1=C(/C#N)c1nnc2n1CCCCC2	?	0%

# Other results
canonical_smiles	N370S GC mod	KAT2A inh
Cc1ccc(CNC(=O)CN(c2ccc(C(C)C)cc2)S(=O)(=O)c2c(C)n[nH]c2C)cc1	.	-7%
COc1ccc(OCC(O)CNC(=O)c2ccc(OC)cc2)cc1 (stereo not drawn)	-1%	-7%
NS(=O)(=O)c1ccc(NC(=O)COC(=O)CCC2CCCC2)cc1	5%	-5%
CCOC(=O)Nc1ccc2c(c1)N(C(=O)CN1CCN(C)CC1)c1ccccc1CC2	3%	-10%
COc1ccccc1NS(=O)(=O)c1ccc(/C=C/C(=O)O)cc1	-2%	3%
Cc1ccc(NC(=O)c2ccccc2-c2ccccc2C(=O)O)cc1	-15%	-2%
COc1ccc(Nc2ncc3c(n2)CC(c2ccccc2)CC3=O)cc1 (stereo not drawn)	16%	-6%
CCc1c(C)sc(NC(=O)c2ccccc2[N+](=O)[O-])c1C(N)=O	-18%	0%
COc1ccc(-n2c(=O)c3sc4ccccc4c3n(C)c2=O)cc1	.	-5%
COc1ccc(NC(=O)CN(C)C(=O)c2ccc(-c3ccccc3Cl)o2)cc1	5%	0%
Cc1ccc(C(=O)NC(=S)Nc2ccc(N3CCN(C(=O)c4ccco4)CC3)cc2)cc1	-4%	?
CCOC(=O)C1CCN(C(=O)c2ccc(OCC)c(OCC)c2)CC1	3%	-2%
COCCN(C(=S)Nc1ccc(Cl)cc1OC)C1CCN(C(C)=O)CC1	-3%	-6%

# A portion of the library; most or all hits stand in other tables.
